HSV replic up: increases HSV replication in cells. maximum fold increase. HSV replication augmentation in cells, fold increase. hit rate 0.005% among 220,000. AID 1956;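 active = peak rise of 1.5-fold or more in the series; inconclusive = self-fluorescent or not available for retest; tested in PC3 cells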;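 note: first round at 10 µM; read as green reporter fluorescence; hits show the peak of a series up to 25 µM; 1 = signal of infected wells without compound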
RGS16-Gao: RGS16-Galphao interaction regulator (human); O15492+P09471; bead-based flow cytometry RGS16-Galphao binding, fluorescence; actives lie on both sides; binding response (% of control), % at 10 µM; hit rate 0.38% among 220,000; AID 1441;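 active = below 25% or above 175%, edge rows of some plates excepted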;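 note: Galphao activated by GDP with aluminum fluoride before binding; 100% = wells without compound and 0% = beads without RGS; some results beyond the cut were filed as inactive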
GALR2 ag: GALR2 (human) receptor agonism. hit rate 0.48% among 140,000. activation, %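 (tested at 5 µM)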. GALR2-expressing cells, agonist activation read-out;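 active = above mean plus 3 SD of all compounds, about 5% in these data, not always enough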;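 note: 0% = vehicle buffer wells and 100% = reference agonist at full effect; tested in CHO reporter cells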
PKD1 kinase inh: PKD1 (human) kinase inhibition | AID 797 | Q15139 | hit rate 0.056% among 200,000 | inhibition, %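 (about 10 µM by stock and volumes)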 | PKD1 kinase fluorescence polarization assay;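 active = inhibition of 50% or more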;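 note: controls were vehicle for no effect and a reference inhibitor for full effect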
Target sequence (Q15139 whole entry, looked up): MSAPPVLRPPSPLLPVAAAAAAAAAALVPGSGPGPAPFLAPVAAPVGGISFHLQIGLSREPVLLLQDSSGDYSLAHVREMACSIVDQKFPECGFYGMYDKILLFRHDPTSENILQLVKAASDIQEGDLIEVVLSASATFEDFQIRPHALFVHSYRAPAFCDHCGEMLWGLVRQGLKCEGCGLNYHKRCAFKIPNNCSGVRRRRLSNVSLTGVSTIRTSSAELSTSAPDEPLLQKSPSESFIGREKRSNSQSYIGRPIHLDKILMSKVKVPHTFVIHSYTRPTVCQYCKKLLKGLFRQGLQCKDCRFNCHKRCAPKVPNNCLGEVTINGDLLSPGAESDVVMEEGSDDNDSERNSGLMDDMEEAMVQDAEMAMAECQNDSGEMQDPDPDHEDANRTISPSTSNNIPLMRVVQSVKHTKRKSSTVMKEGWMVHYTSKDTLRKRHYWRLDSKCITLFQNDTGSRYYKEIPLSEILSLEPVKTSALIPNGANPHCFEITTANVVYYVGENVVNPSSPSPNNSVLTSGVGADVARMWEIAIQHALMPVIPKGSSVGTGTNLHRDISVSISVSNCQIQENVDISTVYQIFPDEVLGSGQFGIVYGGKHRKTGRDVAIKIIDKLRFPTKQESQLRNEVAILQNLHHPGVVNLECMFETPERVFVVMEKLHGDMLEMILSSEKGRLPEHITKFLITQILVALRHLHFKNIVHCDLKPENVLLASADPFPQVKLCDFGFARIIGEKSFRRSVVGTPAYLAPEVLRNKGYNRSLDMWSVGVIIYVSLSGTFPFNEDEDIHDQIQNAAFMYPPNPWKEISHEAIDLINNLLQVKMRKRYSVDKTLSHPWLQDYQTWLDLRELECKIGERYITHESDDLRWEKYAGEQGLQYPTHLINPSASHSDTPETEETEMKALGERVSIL
INS promoter inh: TRM-6 insulin promoter activity inhibition; TRM-6 cells (human fetal islet line), insulin promoter-eGFP reporter, imaging; reporter expression induced with tamoxifen; inhibition, % at 2 µM; hit rate 0.9% among 130,000; AID 1273;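 active = inhibition above the mean plus 3 SD, with well images judged a real hit on visual review, cut at about 60% in these data, passing the limit was not always enough; inconclusive = inhibition over the cutoff but images rejected on review; inactive = inhibition not above the cutoff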
INS promoter inh cell count: recorded beside INS promoter inh, whose call it bears; normalized cell count, %; measured here: cell count, toxicity; reference of the scale not given here;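 cells exposed to compound for 48 h; stained nuclei by imaging scaled within each plate; lower means fewer cells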
HSV replic up primary fold: recorded beside HSV replic up, whose call it bears; fold increase; compound at 10 µM; measured here: primary screen fold increase 10 uM; tested in PC3 cells;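 GFP signal in the first replicate; 1 = infected wells without compound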
* marks the source's active call; other numbers are inactive results; i = inactive; ? = inconclusive; · = no result given.

SMILES	HSV replic up	HSV replic up primary fold	RGS16-Gao	GALR2 ag	PKD1 kinase inh	INS promoter inh	INS promoter inh cell count
COc1ccc(C2C(C(=O)N3CCN(C)CC3)c3cc(OC)c(OC)cc3C(=O)N2C)cc1 (stereo unspecified)	i	0.98	97	·	3	0	116
O=C1c2cccc3c(N4CCCCC4)ccc(c23)C(=O)N1CCO	?	·	102	0.1	-9	-46	117
CC1(C(=O)O)CCC(C(=O)NCCc2ccccc2)C1(C)C (stereo unspecified)	i	0.92	128	-1.4	2	31	132
Cc1nn(CC2CC2)c(=O)n1-c1ccc(Oc2ccccc2)cc1	i	0.91	105	·	-2	·	·
COc1cccc(C(=O)COc2ccc3ccc(=O)oc3c2)c1	i	0.91	101	·	-6	·	·
Cc1ccc(C2C3CSCC=C3C(C#N)=C(N)C2(C#N)C#N)cc1 (stereo unspecified)	?	·	83	0.0	-11	4	104
O=C(COC(=O)c1cncc(Br)c1)NC1CCCC1	i	0.92	177	·	5	43	100
CC(NC(=O)COC(=O)c1cn(-c2ccccc2)nc1-c1cccs1)c1ccccc1 (stereo unspecified)	i	0.67	60	-2.0	4	19	57
CC(C)(C)c1ccc(Oc2cccc(C3CC(=O)C(C4NCCc5ccccc54)C(=O)C3n3cncn3)c2)cc1 (stereo unspecified)	i	1	102	-2.5	6	-33	72
Cc1nc(N2CCC(C)CC2)c2c(C)c(C(=O)Nc3cccc(C(F)(F)F)c3)sc2n1	i	0.8	98	·	-3	-50	59
CCOC(=O)C1=C(C)Nc2ncnn2C1c1cccs1 (stereo unspecified)	i	0.95	114	-1.8	3	17	113
O=C1c2cccnc2C(Nc2cccc(F)c2)N1Cc1ccco1 (stereo unspecified)	i	0.88	102	·	-3	·	·
Cc1ccc(NC(=O)COC(=O)C2CC2)c(Br)c1	i	0.98	124	0.2	-7	-31	64
Cc1ccc(-c2cc(C(=O)N3CCN(C(=O)c4ccco4)CC3)no2)cc1	i	0.93	103	-2.1	0	-406	55
CCn1c(SCC(=O)N2c3ccccc3Sc3ccccc32)nnc1-c1ccco1	i	0.88	97	-2.5	7	-75	87

In a second layout: seven of the compounds above.
| SMILES | HSV replic up | HSV replic up primary fold | RGS16-Gao | GALR2 ag | PKD1 kinase inh | INS promoter inh | INS promoter inh cell count |
| --- | --- | --- | --- | --- | --- | --- | --- |
| O=C1c2cccc3c(N4CCCCC4)ccc(c23)C(=O)N1CCO | ? | · | 102 | 0.1 | -9 | -46 | 117 |
| COc1ccc(C2C(C(=O)N3CCN(C)CC3)c3cc(OC)c(OC)cc3C(=O)N2C)cc1 (stereo unspecified) | i | 0.98 | 97 | · | 3 | 0 | 116 |
| Cc1ccc(C2C3CSCC=C3C(C#N)=C(N)C2(C#N)C#N)cc1 (stereo unspecified) | ? | · | 83 | 0.0 | -11 | 4 | 104 |
| CCOC(=O)C1=C(C)Nc2ncnn2C1c1cccs1 (stereo unspecified) | i | 0.95 | 114 | -1.8 | 3 | 17 | 113 |
| Cc1ccc(NC(=O)COC(=O)C2CC2)c(Br)c1 | i | 0.98 | 124 | 0.2 | -7 | -31 | 64 |
| COc1cccc(C(=O)COc2ccc3ccc(=O)oc3c2)c1 | i | 0.91 | 101 | · | -6 | · | · |
| Cc1ccc(-c2cc(C(=O)N3CCN(C(=O)c4ccco4)CC3)no2)cc1 | i | 0.93 | 103 | -2.1 | 0 | -406 | 55 |

Next part:
SMILES	HSV replic up	HSV replic up primary fold	RGS16-Gao	GALR2 ag	PKD1 kinase inh	INS promoter inh	INS promoter inh cell count
Cc1ccc(S(=O)(=O)N2CCOCC2)cc1C(=O)NC(=S)N1CC(C)CC(C)C1 (stereo unspecified)	i	0.89	103	·	·	·	·
Cn1nc(C(F)(F)F)c(/C=N/OC(=O)c2ccc(Cl)cc2)c1Cl	i	0.75	95	-1.8	-11	-4	106
CC(C)CC(=O)NC(=S)Nc1ccccc1C(F)(F)F	i	0.88	103	-0.8	8	-20	77
Cc1cc(NC(=O)CCC(=O)N(Cc2cccs2)C(C(=O)NC2CCCC2)c2ccncc2)no1 (stereo unspecified)	i	0.98	107	-1.2	-2	-26	104
CCOc1ccc(C2CC(c3cccc(OC)c3OC)n3nnnc3N2)cc1Cl (stereo unspecified)	i	0.89	102	-1.3	-10	·	·
O=C(COC(=O)COc1ccc(Cl)cc1Br)NCc1cccs1	i	1	110	·	-8	·	·
CCOC(=O)C(C(=O)OCC)C(C#N)c1ccccc1 (stereo unspecified)	i	1	101	-1.4	-3	14	139
Cc1oc(-c2ccccc2Cl)nc1CSCC(=O)N1CCCC1	i	0.65	101	-1.9	2	·	·
O=C1N=C(N2CCc3ccccc3C2)S/C1=C\c1cccc(O)c1	i	1.1	105	0.2	-10	44	123
O=C(NC1CCCCCCC1)C1c2ccccc2C(=O)N1Cc1ccco1 (stereo unspecified)	i	0.67	102	-2.3	10	3	133
COc1ccc(CN(C(=O)CSc2nnc(-c3ccc(OC)c(OC)c3)o2)c2ccc(F)cc2)cc1	i	0.96	109	0.2	-5	38	115
COc1ccc(-c2csc3ncnc(Oc4ccc5c(C)cc(=O)oc5c4)c23)cc1	i	0.88	101	1.3	4	·	·
COc1ccccc1C(=O)Nc1ccc2c(c1)OCCO2	i	0.84	102	-2.5	12	9	83
O=S(=O)(Nc1ccc(-c2nc3cccnc3s2)cc1)c1cc(F)ccc1F	i	0.97	97	·	·	·	·
CCN(CC)CCNC(=O)c1cn(CC)c2cc(N3CCN(C(=O)c4ccco4)CC3)c(F)cc2c1=O	i	0.89	91	·	·	·	·
Cc1cccc2cc(CN(Cc3ccc(F)cc3)Cc3nnnn3C3CCCC3)c(=O)[nH]c12	i	0.86	105	0.0	-7	-12	135
O=C(/C=C/c1cccc([N+](=O)[O-])c1)NCCSCc1c(Cl)cccc1Cl	i	1.1	94	-0.8	0	-17	76
COc1ccccc1NC(=O)CCC(=O)OCc1ccc(Br)cc1	i	0.93	100	·	-9	37	81
O=C(Nc1nnc(Cc2ccccc2)s1)c1cccs1	i	0.97	97	0.1	-6	-81	88
CN1CCc2c(c3ccccc3n2C)C1	i	0.81	102	-7.0	-10	41	44
COc1ccc(Cl)cc1C(=O)Nc1ccc(CN2CCCCC2)cc1	i	0.88	101	·	0	·	·
O=C(OCC(=O)N1CCOCC1)c1ccccc1Cc1ccccc1	i	1	106	0.7	4	·	·
O=C(CNS(=O)(=O)c1ccccc1)N/N=C/c1ccc(O)cc1	i	1.1	58	·	-1	·	·
CC(C)c1ccc(/C=N/NC(=O)CC(=O)NCc2ccccc2)cc1	i	0.92	99	·	-16	-11	91
Clc1ccc(Cl)c2sc(N3CCOCC3)nc12	i	0.82	·	-2.4	-10	·	·
Cc1[nH]c2ccccc2c1Cc1nnc(SCC(N)=O)o1	i	1	53	-0.6	-5	-110	50
Cc1cccc(C)c1NC(=S)NC(=O)c1ccc(Br)o1	i	0.94	103	·	0	·	·
Cc1ccc2cc([N+](=O)[O-])ccc2n1	i	0.96	91	·	·	·	·
CC(C)C1=NN(C(=O)c2cccnc2)C(O)(C(F)(F)F)C1 (stereo unspecified)	i	0.95	107	-0.4	1	-50	42
O=C(/C=C/c1ccc([N+](=O)[O-])cc1)N1CCN(S(=O)(=O)c2cccs2)CC1	i	0.74	103	·	·	·	·
COc1ccc(-c2noc(CCCOc3ccccc3)n2)cc1OC	i	0.74	97	-1.4	4	-22	161
COc1ccc2c(c1[N+](=O)[O-])CCC/C2=N/OC(=O)c1cccc2ccccc12	i	0.95	95	-1.9	-11	30	50
COc1ccc(/C=N/NC(=S)Nc2ccccc2)cc1COc1ccc(F)cc1F	i	0.91	83	-0.2	-11	-22	123
CCOC(=O)CSc1ncnc2c1cnn2-c1ccc(C)cc1	i	0.92	92	0.7	2	-14	134
N#C/C(=C/c1ccccc1)c1nn(CCO)c(N)c1C#N	i	0.83	101	-1.7	7	-7	129
CCOC(=O)c1c(NC(=O)C(C)N2CCN(C(=O)c3ccco3)CC2)sc2c1CCCC2 (stereo unspecified)	·	·	103	-0.3	2	42	91
CCOC(=O)C1=C(C)Nc2nc(SCC)nn2C1c1ccc(OC)cc1 (stereo unspecified)	i	0.97	112	-3.3	2	0	139
COc1cc(C2=NOC(C(=O)Nc3c(C)n(C)n(-c4ccccc4)c3=O)C2)cc(OC)c1OC (stereo unspecified)	i	0.93	104	·	·	·	·
O=c1c2c(nc3c(-c4ccccc4)c[nH]n13)CCCC2	i	1.2	97	-3.6	-2	67	130
O=C1N=c2ccccc2=C1c1sc(=S)n(Cc2ccccc2Cl)c1O	i	0.93	98	·	·	·	·
CN(CC(=O)O/N=C(\N)c1ccccn1)S(=O)(=O)c1ccccc1	i	1.1	101	-0.8	-9	20	107
CC(C)=CCN1CCN(Cc2cnc(C)s2)CC1CCO (stereo unspecified)	i	1.2	101	·	-6	·	·
O=C(COc1ccccc1)NCCSCc1ccc(Cl)cc1	i	0.99	108	-0.1	-13	11	147
CCN1C(=C(C#N)C#N)C=Cc2cc(C)ccc21	i	0.98	96	·	-6	-12	111
CC1(C)C=Cc2c(c3ccccc3[nH]c2=O)O1	i	0.79	102	0.0	0	·	·
C[C@@H]1NC(=O)[C@H](CCCN=C(N)N)NC(=O)c2cc([N+](=O)[O-])cc(I)c2NCCC[C@@H](C(N)=O)NC1=O	i	0.71	83	-0.4	5	15	86
Cc1cc(S(=O)(=O)NC2CCN(Cc3ccccc3)CC2)c(C)cc1Cl	i	0.86	79	·	·	·	·
CN1C(=O)/C(=C/c2ccccc2OCc2ccc(C(=O)O)cc2)NC1=S	i	1.1	100	·	-2	·	·
COC(=O)CN(c1ccc(OC)cc1OC)S(=O)(=O)c1ccccc1[N+](=O)[O-]	i	0.89	107	·	0	56	106
COC(=O)CCCCC1SCC(NC(=O)c2ccccc2)C1OC(C)=O (stereo unspecified)	i	0.99	104	·	-11	·	·
COc1ccc(CN(CCCN2CCOCC2)S(=O)(=O)N(C)C)cc1OC	i	0.84	106	-0.5	-2	·	·
CC(C)(C)NC(=O)C1Cc2ccccc2CN1C(=O)Nc1cccc(Cl)c1 (stereo unspecified)	i	1.2	105	-0.7	-2	-23	76
CCCOc1ccc(/C=C/c2[nH]c(=O)[nH]c(=O)c2[N+](=O)[O-])cc1OCC	i	0.93	97	·	·	·	·
COC(=O)c1cc(=O)c2cccc(OC)c2[nH]1	i	1.1	93	·	·	·	·
CC(C)(C)OC(=O)NCCc1nnc(SCc2ccccc2Cl)o1	i	0.97	109	-0.1	1	-10	126
O=C(COc1ccc(Br)cc1)N/N=C1/SCC(=O)N1Cc1ccco1	i	0.96	97	·	-1	·	·
Cc1ccccc1OCC(=O)Nn1c(COc2ccccc2)nc2ccccc2c1=O	i	0.9	103	-2.6	4	23	180
O=C(c1cc([N+](=O)[O-])cc([N+](=O)[O-])c1)N(c1ccccn1)c1ccccn1	i	1.3	115	-0.1	-7	·	·
COc1ccc(C2C(C#N)=C(N)N(c3sc4c(c3C#N)CCCC4)C3=C2C(=O)CC(C)(C)C3)cc1 (stereo unspecified)	·	·	101	0.2	-8	-3	123
NS(=O)(=O)c1cccc(NC(=O)CN2CCc3ccccc32)c1	?	·	83	·	-4	13	51
The listing continues.
SMILES	HSV replic up	HSV replic up primary fold	RGS16-Gao	GALR2 ag	PKD1 kinase inh	INS promoter inh	INS promoter inh cell count
COc1ccc(C2=NN(C)C(=NCc3ccccc3)SC2)cc1	i	1.1	101	-3.5	-4	11	168
O=C(CNCc1ccco1)Nc1ccc(Oc2ccccc2)cc1	·	·	109	·	6	21	170
Cc1ccc(C(C)C)c(OCC(=O)N/N=C/C2CCCCC2)c1	i	0.96	116	·	-3	29	124
CCOC(=O)c1cnc2cc(Cl)c(OC)cc2c1NCC1CCCO1 (stereo unspecified)	i	0.97	101	-1.2	-1	64	86
CCC[n+]1c(C)sc2c3c(ccc21)CCCC3	i	1.2	93	·	-8	·	·
CCOC(=O)NC1(NC(C)C)Oc2ccccc2O1	i	0.79	102	-1.8	3	27	127
O=C(Oc1c(Br)cc(C(=S)N2CCOCC2)cc1Br)c1ccc(Cl)cc1	·	·	73	-0.7	-4	25	91
CC1=CCCC(C)(C)C1/C=C/C(C)=N/NC(=O)c1ccncc1 (stereo unspecified)	i	0.85	99	·	-2	·	·
Cc1cc(C)c2[nH]c(=O)c(=O)[nH]c2c1	i	0.99	102	1.9	-3	-53	130
Cc1cc(C)c(/C=N/NC(N)=O)c(C)c1/C=N/NC(N)=O	i	1	102	-2.8	4	-21	98
O=C(/C=N/NC(=O)c1ccc(Cl)cc1Cl)c1ccccc1	i	0.91	102	·	·	·	·
CCCCn1c(CCNC(=O)CCC)nc2ccccc21	i	0.75	91	-1.8	-11	·	·
c1csc(-c2ccn[nH]2)c1	i	0.76	101	·	·	·	·
FC(F)(F)c1cc(C(F)(F)F)c2ccc(Oc3ccccc3)nc2n1	i	0.87	110	-0.9	8	15	144

Screening results: PubChem, several laboratories

Random draw from the library; 1.2% or so of the library scored in one or more.
